NPYLR7 agonist = agonists of mosquito NPYLR7 receptor, primary screen, cell-based, Aedes aegypti, calcium fluorescence, mosquito biting behavior. Aedes aegypti neuropeptide Y-like receptor 7 (NPYLR7). HEK293T NPYLR7/Galpha15, GCaMP6s calcium fluorescence. activation, % at 10 µM. hit rate 0.15% among 270,000. AID 1259423, 2018; in the data active = activation above about 40%;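 also: 0% = vehicle and 100% = reference agonist at the receptor; some compounds past the cut are filed as inactive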
NPYLR7 agonist max-min = also measured in NPYLR7 agonist; calls as there; activation, %; measured here: Max-Min RFU normalised activation; some inactives read as strong as hits;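 span of the calcium signal over five minutes; 0% = vehicle and 100% = native peptide agonist; compound fluorescence can raise it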
* marks the source's active call; other numbers are inactive results; & = joins results of further samples. A portion of the library (hit frequency here may not be typical).

The first six entries, ahead of the listing:
SMILES	NPYLR7 agonist	NPYLR7 agonist max-min
CC[C@H]1CN(C(=O)CCc2ccc(S(=O)(=O)NC)cc2)CC[C@@]1(C)O	4	2
Cc1c(F)cccc1N1C(=O)CSC1c1cccc(NC(=O)c2cccs2)c1 (stereo unspecified)	26	32
CC(CNCc1cn[nH]c1-c1ccc(F)cc1)Oc1cccnc1 (stereo unspecified)	20	11
COc1ccc(CCOc2nc(-c3ccccc3F)n(-c3cccc(NC(=O)c4ccc(F)cc4)c3)n2)cc1	18	21
CCCC(C)c1nnc(NC(=O)Cc2[nH]nc3ccccc23)s1 (stereo unspecified)	10	6
COc1ccc2nc(N(CCN3CCOCC3)C(=O)c3ccc([N+](=O)[O-])o3)sc2c1	15	10

The list itself, from the start:
SMILES	NPYLR7 agonist	NPYLR7 agonist max-min
CC[C@H]1CN(C(=O)CCc2ccc(S(=O)(=O)NC)cc2)CC[C@@]1(C)O	4	2
Cc1c(F)cccc1N1C(=O)CSC1c1cccc(NC(=O)c2cccs2)c1 (stereo unspecified)	26	32
CC(CNCc1cn[nH]c1-c1ccc(F)cc1)Oc1cccnc1 (stereo unspecified)	20	11
COc1ccc(CCOc2nc(-c3ccccc3F)n(-c3cccc(NC(=O)c4ccc(F)cc4)c3)n2)cc1	18	21
CCCC(C)c1nnc(NC(=O)Cc2[nH]nc3ccccc23)s1 (stereo unspecified)	10	6
COc1ccc2nc(N(CCN3CCOCC3)C(=O)c3ccc([N+](=O)[O-])o3)sc2c1	15	10
COCC(=O)Nc1cccc(-c2cccc(OC)c2F)c1	6	3
CCc1ccccc1N1C(=O)CSC1c1ccc(NC(=O)c2ccc(Cl)c([N+](=O)[O-])c2)cc1 (stereo unspecified)	11	12
COc1ccccc1OCCN(C)CCNC(=O)OC(C)(C)C	3	1
COc1ccccc1CCN1CCC(CN(C)C(=O)C2CC23CCC3)CC1 (stereo unspecified)	0	1
CCC(C(=O)Nc1ccc(C2SCC(=O)N2c2ccc(F)cc2F)cc1)c1ccccc1 (stereo unspecified)	6	12
O=C(c1cccc(S(=O)(=O)Cc2ccccc2)c1)N1CC(OCC(F)F)C1	3	2
O=C(COc1ccc(Br)cc1)N=Nc1c(O)[nH]c2ccc(Cl)cc12	1	0
CCc1nnc(SCC(=O)N2CCCC(C(=O)c3ccc(-c4ccccc4)cc3)C2)o1 (stereo unspecified)	5	-4
O=C(NCc1ccccc1)c1csc(N2CCN(Cc3ccccc3)C2=O)n1	2	-2
CCCN(CCc1ccccc1)C1CCc2c(O)cccc2C1 (stereo unspecified)	5	-35
CN(C(=O)C(N)c1ccccc1)C1CCSC1 (stereo unspecified)	1&2	4&4
CCn1nccc1C(=O)N(CCN1CCOCC1)c1nc2c(Cl)cccc2s1	3	6
Cc1ccccc1-c1cn[nH]c1C1CCN(C(=O)CN2C(=O)c3ccccc3C2=O)CC1	18	1
COc1cc(OC)cc(OCCO)c1	-13	-17
O=C(NC1(C(F)(F)F)N=C(c2ccccc2)NC1=O)c1ccccc1 (stereo unspecified)	27	15
CCc1cccc(NC(=O)N(CC(=O)N(Cc2ccc(F)cc2)Cc2cccs2)C2CCCCC2)c1	-3	-4
O=C1NCC2(CCCN(C(=O)c3cc(-c4ccccc4)nc4ccccc34)C2)O1 (stereo unspecified)	1	1
CC(C)CS(=O)(=O)CC(=O)N1CC(c2ccc(F)cc2)CC1C (stereo unspecified)	28	29
Cc1ccc(C)c(NC(=O)/C(C#N)=C/c2ccc(Sc3nc(C)cc(C)n3)o2)c1	2	-2

(further entries)
SMILES	NPYLR7 agonist	NPYLR7 agonist max-min
O=S(=O)(NCc1ccccc1)N1CCN(CC2CCCO2)CC1 (stereo unspecified)	-1	19
CC(=O)Nc1ccc(N2C(=O)CSC2c2ccc(Br)cc2)cc1 (stereo unspecified)	-1	5
CS(=O)(=O)NC1CCN(Cc2cc3n(n2)CCCNC3)CC1	1	1
COc1ccc(-n2c(SCC(=O)c3ccccc3)nc3c(c2=O)SC(C)C3)cc1 (stereo unspecified)	2	0
O=C(CCN1C(=O)c2ccccc2C1=O)Nc1ccccc1C(=O)N1CCOCC1	-5	-3
CCCCCc1ccc(C(=O)NCCN2CCN(c3nc(Cc4ccc(F)cc4)ns3)CC2)cc1	-4	4
Cc1cc(C(=O)N(CCN(C)C)c2nc3ccc(Cl)cc3s2)no1	0	-2
CC(C)C(=O)N1CCC(N2CC[C@@H](c3ccc(F)cc3)[C@H](O)C2)CC1	7	2
CC(C)(NC(=O)c1cccs1)C(=O)NCc1ccccc1Cn1cccn1	7	4
COc1ccc2c(c1)C(CN1CCN(c3ccc4oc(C(=O)O)cc4c3Cl)CC1)=CC(C)(C)CO2	4	15
Clc1ccc(Sc2ncccn2)cc1	-1	-2
Cc1ccc(Nc2nc(N3CCN(C)CC3)nc3nccnc23)cc1Cl	3	5
Cc1ccc(S(=O)(=O)NC(=O)Cn2nc(C)c(Cl)c2C)s1	-3	-6
CN(CC1Cc2ccccc2O1)C(=O)CC1(c2ccc(-c3ccccc3)cc2)CC(=O)N(C)C1=O (stereo unspecified)	16	5
CC(=O)O[C@H]1[C@@H](CN(C)C(=O)OCc2ccccc2)[C@H]2O[C@@H]1c1ccccc12	-8	1
Cc1[nH]c2ccccc2c1C(c1cccs1)N1CCCC1 (stereo unspecified)	-9	-13
O=C1C2C(C(=O)N1c1cc(Cl)ccn1)C1C=CC2C12CC2 (stereo unspecified)	-8	-6
Cn1c(=NC(=O)c2ccc(Cl)s2)sc2cc(S(C)(=O)=O)ccc21	0	5
CC(=O)Nc1ccc(NC(C)C(=O)NCc2cccs2)cc1Cl (stereo unspecified)	-2	-2
CCOc1ccc(/C=N\NC(=O)CSc2nc3ccccc3s2)cc1	-8	-13
CCCn1cc(CN2CCN(Cc3cccc(C)n3)C(CCO)C2)c(C)n1 (stereo unspecified)	-2	-4
NS(=O)(=O)c1ccc(Sc2ccccc2F)nc1	9	4
CCS(=O)(=O)Oc1cc(CN(C(=O)Nc2ccccc2Br)C(C)C)ccc1OC	-12	-4
COC(=O)c1ccc2c(=O)[nH]c(CS(=O)(=O)c3ccc(C)cc3)nc2c1	-1	-7
CCCCNC(=O)c1ccc(Cl)cc1O	-17	-19

Next section:
SMILES	NPYLR7 agonist	NPYLR7 agonist max-min
Cc1cnc(C(=O)Nc2ccc(S(=O)(=O)NC3=NCCC3)cc2)cn1	14&11	9&8
CC1CCN(C(=O)c2cccc(NC(=O)c3cccnc3)c2)C1 (stereo unspecified)	-1	-2
COC(=O)c1c(-c2cccs2)csc1NC(=O)c1cc(OC)c(OC)c(OC)c1	-5	-14
CN(C)C(C(=O)N1CCC(Cn2cccn2)CC1)c1ccc(F)cc1 (stereo unspecified)	7	4
CCN(CC)C(=O)Oc1ccc2c(ccn2Cc2ccc(OC)cc2)c1-c1cc(F)cc(F)c1	15	4
Cc1nc(C)c(CC(=O)N2CCC3(CC2)C(=O)Nc2ccccc23)c(=O)[nH]1	-5	-8
O=C(CSC1=NCCN1)NC1CCCCCC1	5	0
Nc1ccc(S(N)(=O)=O)cc1[N+](=O)[O-]	4	2
CC[C@@H](NC(=O)N[C@H]1C[C@H]2C(=O)NCC(=O)N2C1)c1ccccc1	6	5
O=C(c1cc(-c2ccc(F)cc2)c[nH]1)N1CCN(c2ccccc2O)CC1	8	6
COc1cccc(NC(=O)C2(C)CCN2C(=O)c2cccc(F)c2)c1 (stereo unspecified)	6	3
COc1cccc(CN(Cc2cccc(C(F)(F)F)c2)Cc2nc(C(=O)NCc3ccco3)co2)c1	17	18
O=C(CNC(=O)c1ccccc1Cl)N=Nc1c(O)n(Cc2ccccc2)c2ccccc12	0	-6
COc1ccc(C(=O)NCc2cccc(-c3ncc(-c4ccccc4)[nH]3)c2)cc1	4	-2
Cc1nc2c(=O)n(CC(=O)NCc3ccco3)nc(-c3cccs3)c2s1	4	1
CC(C)Nc1ncccc1C(=O)NCCNc1ccc([N+](=O)[O-])cn1	-18	-23
COc1ccc2nc(-c3cccc(NC(=O)Nc4ccc(C)cc4)c3)cn2n1	1	1
COCCN1CCC(C(=O)N(C)Cc2nc3ccccc3s2)C1 (stereo unspecified)	9	5
CCOC(=O)C1CCN(c2cc(Oc3ccc(C)cc3)ncn2)CC1	-12	-6
CCC(C)N(Cc1cccc(C)c1)CC(O)COCc1ccccc1 (stereo unspecified)	11	3
Cc1cccc(Nc2nc(NCCN3CCOCC3)nc3c2cnn3C)c1	7	4
CNC(=O)COc1coc(CN2c3ccccc3CC2C)cc1=O (stereo unspecified)	1	0
CCc1cc(N(C)CCc2ccc(OC)c(OC)c2)nc(SCc2ccc(C(=O)NC3CC3)cc2)n1	4	7
O=C(CCN=C1NS(=O)(=O)c2ccccc21)Nc1ccccc1	7	16
COCC(C)NC(=O)c1cc2c(C)nn(Cc3ccccc3)c2s1 (stereo unspecified)	2	0

(list continues)
SMILES	NPYLR7 agonist	NPYLR7 agonist max-min
COc1ccc(C(=O)NCC(=O)Nc2nc3cc4c(cc3s2)OCCO4)cc1OC	9	13
CCN1CCN(c2c(CN(C(=O)Nc3ccc(SC)cc3)C(C)C)c(C)nn2-c2cccc(F)c2)CC1	7	7
CCCN(C(=O)CNC)[C@@H]1CCCC[C@H]1O	17	15
Cc1[nH]n2c(=O)c(C#N)c(-c3ccccc3)nc2c1-c1ccccc1	-5	-5
CCOc1cn(C)c(C(=O)NCc2ccc3c(c2)OCO3)cc1=O	4	4
CCc1nc(CN2CCC(c3[nH]ncc3Cc3ccccc3)CC2)c(C)[nH]1	-1	-1
Cc1cccc2oc(-c3ccc(N)cc3Cl)nc12	2	4
CCOc1ccccc1N1CCN(C(=O)c2sc3cc(C)ccc3c2Cl)CC1	-9	-15
CC(=O)NC(CC(=O)N1CCC2(CC1)CC(=O)c1cc(F)ccc1O2)C(=O)N1CCC2(CC1)CC(=O)c1cc(F)ccc1O2 (stereo unspecified)	-2	-3
Cc1ccc(CN2CCN(Cc3cccc4nonc34)CC2CCO)o1 (stereo unspecified)	5	3
C=CCN1C(=O)c2ccccc2NC1c1ccccc1OC (stereo unspecified)	18	7
COc1ccc(S(=O)(=O)Oc2cccc(CN(CC(C)C)C(=O)c3cccc(F)c3)c2)cc1	13	10
O=c1c2ccccc2nnn1Cc1ccc(Cl)cc1	-5	-3
CC1CCN(CCNS(=O)(=O)c2ccc(F)cc2F)CC1	7	6
CC(=O)Nc1ccc(S(=O)(=O)N2CCC3(CC2)C(=O)N(CC(=O)N(C)Cc2ccccc2)CN3c2ccccc2)cc1	-1	9
O=S(=O)(Nc1ccc(N2CCCCCC2)cc1)c1ccc(S(=O)(=O)N2CCOCC2)cc1	14	18
CC1(C(=O)Nc2cccc(NS(C)(=O)=O)c2)CCN1Cc1ccc2c(c1)OCCO2 (stereo unspecified)	9	2
O=C(CN1CCN(c2ccc(F)cc2)CC1)Nc1cccc2ncccc12	-7	-11
O=C(Nc1ccc(-c2nc3ccccc3[nH]2)cc1)C12CC3CC(CC(C3)C1)C2	-4	-9
COc1ccc(CNC(=O)c2cccnc2N2CCN(C(=O)c3ccco3)CC2)cc1	19	16
O=C(c1ccccc1C1CCNC1)N1CCc2nnc(-c3ccccc3)n2CC1 (stereo unspecified)	-1	1
COC(=O)c1ccc(CN(C)c2snc(Cl)c2C#N)cc1	9	3
CS(=O)(=O)c1ccccc1NC(=O)COC(=O)c1cccnc1N	2	1
O=C(CNC(=O)c1ccccc1)NN1S(=O)(=O)c2ccccc2S1(=O)=O	4	2
COc1ccc(CN(C)C(=O)CN2C(=O)NC3(CCCCC3C)C2=O)cc1 (stereo unspecified)	-1	-3

Looked up above:
`CC1CCN(CCNS(=O)(=O)c2ccc(F)cc2F)CC1` | NPYLR7 agonist max-min: 6
`Cc1ccc(CN2CCN(Cc3cccc4nonc34)CC2CCO)o1` (stereo unspecified) | NPYLR7 agonist max-min: 3
`Cc1[nH]n2c(=O)c(C#N)c(-c3ccccc3)nc2c1-c1ccccc1` | NPYLR7 agonist max-min: -5
`O=C(CNC(=O)c1ccccc1)NN1S(=O)(=O)c2ccccc2S1(=O)=O` | NPYLR7 agonist: 4
`CC1(C(=O)Nc2cccc(NS(C)(=O)=O)c2)CCN1Cc1ccc2c(c1)OCCO2` (stereo unspecified) | NPYLR7 agonist max-min: 2

(cont.)
SMILES	NPYLR7 agonist	NPYLR7 agonist max-min
COc1cccc(C(=O)N2CCCC(OCc3ccccc3)C2)c1 (stereo unspecified)	-4	1
CC(C)c1ccc(NC2CCCN(C(=O)CCn3c(=O)[nH]c4ccccc43)C2)cc1 (stereo unspecified)	1&15	-2&2
CN(Cc1ccccc1Cl)Cn1nc2ccccn2c1=O	11	5
CCN1CCN(c2nc(C)nc3c2CN(C(=O)Nc2ccc(Cl)c(Cl)c2)CC3)CC1	-4	4
Cc1noc(C)c1Cn1c(C)c(C(=O)NCc2cccc(Cl)c2)sc1=O	2	1
O=[N+]([O-])c1cc(F)ccc1S(=O)(=O)Nc1ccc2c(c1)OCCO2	-2	6
CC(=O)N1CCOC(CNC(=O)c2ccc(Oc3ccccc3)o2)C1 (stereo unspecified)	1	3
Cc1ccc(-n2ncc3c(=O)n(NC(=O)c4ccc5ccccc5c4)cnc32)cc1C	0	-2
Cc1c(C(=O)N2Cc3cnc(-c4ccccc4)nc3C2)cnc2ccnn12	12	-8
COc1ccc(CN(CC2CCCO2)C(=O)NC(C)(C)C)cc1OS(=O)(=O)c1ccc(F)cc1 (stereo unspecified)	2	9
COc1ccc2c(c1)sc(=N)n2Cc1cc(C)cc2cccnc12	7	6
CN(Cc1ccccc1C(F)(F)F)CC1CCOCO1 (stereo unspecified)	-4	-5
COCCNC(=O)Cn1nc(-c2ccc(F)cc2)c2sc(N3CCCC3)nc2c1=O	-1	-2
CCN(CC)c1ccc2cc(-c3nnc(-c4ccccc4)o3)c(=O)oc2c1	14	13

Structures listed so far that have a CF3 group, in the order listed:
SMILES	NPYLR7 agonist	NPYLR7 agonist max-min
O=C(NC1(C(F)(F)F)N=C(c2ccccc2)NC1=O)c1ccccc1 (stereo unspecified)	27	15
COc1cccc(CN(Cc2cccc(C(F)(F)F)c2)Cc2nc(C(=O)NCc3ccco3)co2)c1	17	18
CN(Cc1ccccc1C(F)(F)F)CC1CCOCO1 (stereo unspecified)	-4	-5

Assay outcomes: PubChem, Fisher Drug Discovery Resource Center
